# Cruzain Triton: blocks cruzain activity in presence of Triton detergent. purified cruzain, Z-FR-AMC fluorescence, 0.01% Triton. Potency, µM, for inactives: max response, negative = inhibition, hits mostly inhibitors. 200,000 compounds, 0.43% hits. AID 1478;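 further: plate controls were neutral wells for no effect and buffer without enzyme for full effect; nearly all actives have a fitted effect of over 40% in size; top concentration of the series not given in the record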
# Target sequence (P25779 123-467 limits assumed): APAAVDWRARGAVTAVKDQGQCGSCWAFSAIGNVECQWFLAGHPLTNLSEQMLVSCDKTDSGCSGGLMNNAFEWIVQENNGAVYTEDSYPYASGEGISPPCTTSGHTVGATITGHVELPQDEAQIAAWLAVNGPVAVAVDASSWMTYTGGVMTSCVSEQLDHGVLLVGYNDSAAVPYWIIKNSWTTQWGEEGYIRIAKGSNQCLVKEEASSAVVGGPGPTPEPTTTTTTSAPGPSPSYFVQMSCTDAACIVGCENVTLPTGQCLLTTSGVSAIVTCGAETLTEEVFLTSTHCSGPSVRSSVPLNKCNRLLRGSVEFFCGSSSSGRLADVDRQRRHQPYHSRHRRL
#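 Detergent-containing run (0.01% Triton X-100) in acetate buffer pH 5.5 with 5 mM DTT: enzyme at 1.5 nM final, 15 min compound preincubation at room temperature, then 2 uM Z-FR-AMC substrate. Activity taken as 60 s fluorescence increase at 360/450 nm.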
# StopGo reporter: lowers the luciferase signal of an FMDV 2A StopGo reporter | Potency, µM (titrated, usually from 57.9 µM), for the others: at the highest dose signal change, negative = less light | human cells with a luciferase reporter of 2A StopGo recoding; control for the full effect not named in the record | 410,000 compounds, 1.2% hits; active = well fitted falling curve with a large enough effect; inconclusive = small, poorly fitted or top-dose-only effect; inactive = no such curve, though single readings can be large or run the other way; tested in HEK293T cells; further: on the % scale 0 is the no-effect control and ±100 the full control effect; nearly all actives have a fitted effect of over 45% in size; luciferase light after 4 h
# Cruzain inh noDet: blocks cruzain activity in detergent-free assay; Potency, µM, for the others: max response, negative = inhibition, actives largely listed as inhibitors; 200,000 compounds, 2.3% hits; purified cruzain, Z-FR-AMC fluorescence, no detergent;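 further: plate controls were enzyme without inhibitor for no effect and buffer without enzyme for full effect; nearly all actives have a fitted effect of over 40% in size; top concentration of the series not given in the record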
#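 Purified cruzain at 1.5 nM, pre-incubated 15 min with compound at room temperature in 100 mM sodium acetate pH 5.5, 5 mM DTT, 0.00005% Triton X-100. Reaction started with 2 uM Z-FR-AMC; AMC fluorescence increase over 60 s gives rate.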
# LASV entry inh: Lassa virus entry inhibition | Potency, µM (series often up to 37.9 µM), without a hit: at the top dose activity change, negative = inhibition, most hits filed as inhibitors | AID 540256 | Lassa virus pseudotype entry inhibition, cell reporter; control for the full effect not named in the record | 300,000 compounds, 1.2% hits; active means well fitted inhibition curve with a large enough effect; inconclusive means small, poorly fitted or top-dose-only effect, or effect the other way; inactive means flat fitted curve, though single readings scatter; tested in HEK293 cells; further: on the % scale 0 is the no-effect control and ±100 the full control effect; nearly all actives have a fitted effect of over 50% in size; luciferase read-out
# NS1 inh: inhibitors of influenza NS1 protein function; 270,000 compounds, 0.4% hits; S. cerevisiae slowed by influenza A NS1, growth recovery by OD600; Potency, µM (titrated, usually from 46.1 µM), without a hit: at the top dose activity, positive = more growth; active means well fitted rising curve with a large enough effect; inconclusive means small, poorly fitted or top-dose-only effect; inactive means no such curve, though single readings can be large or run the other way; further: nearly all actives have a fitted effect of over 50% in size
#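 Read-out: OD600 growth recovery of NS1-expressing budding yeast. Cells grown overnight at 30C in -URA glucose medium, washed, resuspended and diluted 1:100 in 2% galactose assay medium, pH 6.0. Same strain lacking NS1 served as positive control.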
# MARV entry inh: inhibitors of Marburg virus binding or cell entry; AID 540276; Marburg virus pseudotyped entry inhibition, cell reporter; control for the full effect not named in the record; about a third of the inactives were read at about 46 µM; Potency, µM (series often up to 37.8 µM), without a hit: at the top dose activity change, negative = inhibition, actives largely listed as inhibitors; 300,000 compounds, 1.8% hits; active = well fitted inhibition curve with a large enough effect; inconclusive = small, poorly fitted or top-dose-only effect, or effect the other way; inactive = flat fitted curve, though single readings scatter; tested in HEK293 cells; about a fifth of its hits are not listed in these tables; further: on the % scale 0 is the no-effect control and ±100 the full control effect; luciferase read-out
# RE007 growth inh: less growth of the S. pombe RE007 Vpr strain | S. pombe RE007 Vpr strain, BacTiter-Glo ATP luminescence, 24 h; control for the full effect not named in the record | Potency, µM (top dose mostly 92.2 µM), for inactives: at the highest dose activity change, negative = less growth | 360,000 compounds, 0.21% hits | AID 651644; active = well fitted falling curve with a large enough effect; inconclusive = small, poorly fitted or top-dose-only effect; inactive = no such curve, though single readings can be large or run the other way;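 further: on the % scale 0 is the no-effect control and ±100 the full control effect; nearly all actives have a fitted effect of over 50% in size; the assay follows cell death caused by Vpr and the record does not say whether a fall means rescue or toxicity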
#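 Fission yeast strain RE007, carrying one chromosomally integrated HIV-1 vpr copy, was seeded at OD 0.01 in PMG+AL medium with 23 nL pinned compound. After 24 h at 30 °C and 99% humidity, viability was read by BacTiter-Glo luminescence.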
# SARS PLpro yeast: blocks SARS-CoV papain-like protease in a yeast assay | S. cerevisiae expressing SARS-CoV PLpro, growth rescue; control for the full effect not named in the record | Potency, µM (doses to about 32.9 µM), without a hit: at the highest dose activity, positive = growth rescue | 330,000 compounds, 0.19% hits; active means well fitted rising curve with a large enough effect; inconclusive means small, poorly fitted or top-dose-only effect; inactive means no such curve, though single readings can be large or run the other way; further: 0% is about no effect; nearly all actives have a fitted effect of over 55% in size; growth read by luminescence after 48 h
# Numbers without * were called inactive; u = inconclusive; x = not tested or not shown; & = joins results of further samples; [ ] = another dose, or the depositor's remark. Unless noted, the call rests on the fitted dose curve; in most records, active means well fitted curve in the direction sought with a large enough effect; inconclusive means small, poorly fitted or top-dose-only effect, or another doubt; inactive means no such curve, though single readings can be large; an effect the other way counts as inactive or inconclusive. Potency means the concentration at half of the fitted maximal effect.
# Each structure is followed by: Cruzain Triton | StopGo reporter | Cruzain inh noDet | LASV entry inh | NS1 inh | MARV entry inh | RE007 growth inh | SARS PLpro yeast
Cc1ccc(N2C(=O)N(CC(=O)N(C)Cc3ccccc3)C(=O)C2C)cc1 (stereo not given)
 : 1.8% | -6% | 3% | -24% | 15% | 3% | 24% | 4%
COc1ccccc1NC(=O)CCn1c(=O)oc2cc(Cl)ccc21
 : -0.6% | 4% | -1% | -11%[46.1 µM] | x | x | x | x
COCCNC(=O)/C(C#N)=C1\N=C(NC(=O)c2cccs2)c2ccccc21
 : x | -23% | x | x | -16% | x | 4% | -10%
Cc1csc(NC(=O)CSc2nc(=O)n(CCN(C)C)c3c2CCCC3)n1
 : x | 2% | x | -11%[46.1 µM] | x | -25% | -9% | -4%
COc1cccc(CNC(=O)C(C)n2ccc3cc(S(=O)(=O)N4CCCCCC4)ccc32)c1 (stereo not given)
 : -6.7% | -19%&-15% | 1% | -2%[46.1 µM] | 8% | x | 8% | 2%
Cn1c(=O)c2[nH]c(COc3ccccc3)nc2n(C)c1=O
 : x | -8% | x | u | x | u | 0% | x
CCCC(c1nnnn1CS(=O)(=O)c1ccc(C)cc1)N1CCN(C2CCCC2)CC1 (stereo not given)
 : x | -17% | x | 22% | 10% | u | 6% | -1%
O=C(CNCC1CCCCC1)Nc1ccccc1N1CCCCC1
 : 0.8% | u | 4% | 16% | -13% | -43% | -18% | 1%
CC(C)C(OC(=O)/C=C/c1ccc2c(c1)OCO2)C(=O)NC(N)=O (stereo not given)
 : x | 14% | x | x | 9% | 11%[46.1 µM] | 18% | 0%
CC(C)CC(=O)NCC(c1ccc2c(c1)OCO2)N1CCN(c2ccc(F)cc2)CC1 (stereo not given)
 : 1.2% | -14% | 24% | -1%[46.1 µM] | x | x | x | x
CCN(CC)C(=O)c1ccccc1NC(=O)c1ccccc1SC
 : x | 2% | x | x | 5% | -28%[46.1 µM] | 3% | 0%
CC1(OC(=O)CCc2ccccc2)C(=O)C=C2C=C(c3ccc(C#N)cc3)N(C3CC3)C=C2C1=O (stereo not given)
 : x | -14% | x | x | 6% | x | -6% | 4%
O=C(O)c1ccccc1/C=N/NC(=O)c1cc(-c2ccco2)nc2ccccc12
 : x | -6% | x | u | 6% | -1%[46.1 µM] | -8% | -2%
O=C(NCCOCC(F)(F)C(F)F)c1cc(F)c(F)cc1Cl
 : 0.7% | -5% | -5% | 24%[14.3 µM] | 3% | 2% | 18% | 2%
COc1ccc(C(=O)COc2cccc(NC(=O)c3ccco3)c2)cc1
 : -8.8% | 2% | 11% | -8% | -13%[9.22 µM] | 11% | 5% | -38%
COC(=O)c1ccc(OCC2c3cc(OC)c(OC)cc3CCN2C(=O)c2cccc(C)c2)cc1 (stereo not given)
 : 3.8% | u | u | u | x | x | x | x
CCOC(=O)C1=NOC(C(=O)NN(C)c2ncc(C(F)(F)F)cc2Cl)C1 (stereo not given)
 : x | -12% | x | -16% | x | -22%[46.1 µM] | -17% | 1%
CCN(CC)CC(=O)N1c2ccccc2Oc2c(c(=O)n(C)c(=O)n2C)C1c1cccc([N+](=O)[O-])c1 (stereo not given)
 : x | 8% | x | 1%[46.1 µM] | -6% | -12%[46.1 µM] | -7% | 1%
CCN(CC)CCNC(=O)c1nn(C)c2c1CS(=O)(=O)c1ccccc1-2
 : -2.6% | -7% | -2% | 4%[46.1 µM] | x | x | x | x
CSc1nc2nc3c(cc2c(=O)n1-c1cccc(C)c1)COC(C)(C)C3
 : x | u | x | 3% | -1% | u | 3% | 0%
CC(=O)Nc1cc(NC(C)=O)c2nc(N)sc2c1
 : 0.3% | 5% | -6% | 4% | -6% | -2% | 1% | -1%
Cc1cc(C)c(C(=O)COC(=O)Cn2cnnn2)cc1C
 : 1.5% | 11% | -7% | -11% | 4% | 6% | -4% | 0%
COc1cc(/C=N/NC(=O)C(Cc2c[nH]c3ccccc23)NC(=O)OCc2ccccc2)cc([N+](=O)[O-])c1O (stereo not given)
 : -24% | 9% | 5% | 6.3µM* | u | -1% | 2% | 15%
C/C(=N/NC(=O)c1cc(C2CC2)[nH]n1)c1cccs1
 : -3.5% | -74% | 1% | 2.6µM* | -5% | 10µM* | 11% | -6%
COc1ccc(-c2cc(OC)c3ccccc3n2)cc1
 : u | 24% | u | 14% | -39% | -16% | 1% | -10%
CCOC(=O)C1(CCOc2ccccc2)CCN(Cc2cc(OC)c3c(c2)OCO3)CC1
 : x | u | x | u | 3% | 2.8µM* | -7% | 0%
CC(C)c1nc2sc3c(N4CCCCC4)ncnc3c2c2c1CCCC2
 : 0.0% | -11% | -3% | 15%[46.1 µM] | x | -7%[46.1 µM] | x | x
COc1ccc(C(=O)NCC2COc3ccccc3O2)cc1S(=O)(=O)N1CCOCC1 (stereo not given)
 : x | 1% | x | 18% | x | -13% | -7% | 2%
CCc1ccccc1NC(=O)c1cc(-c2ccc(OC)cc2)on1
 : -0.1% | -1%&-16% | -4% | 5%[46.1 µM] | 3% | -4%&-4%[46.1 µM] | 9% | 1%
O=c1cc(COc2cccc(C(F)(F)F)c2)nc2sc3c(n12)CCCC3
 : -0.6% | -13% | -9% | 6%[46.1 µM] | x | 4%[46.1 µM] | x | x

# The closing 4 entries of the part above lead into the next:
# Each structure is followed by: Cruzain Triton | StopGo reporter | Cruzain inh noDet | LASV entry inh | NS1 inh | MARV entry inh | RE007 growth inh | SARS PLpro yeast
CC(C)c1nc2sc3c(N4CCCCC4)ncnc3c2c2c1CCCC2
 : 0.0% | -11% | -3% | 15%[46.1 µM] | x | -7%[46.1 µM] | x | x
COc1ccc(C(=O)NCC2COc3ccccc3O2)cc1S(=O)(=O)N1CCOCC1 (stereo not given)
 : x | 1% | x | 18% | x | -13% | -7% | 2%
CCc1ccccc1NC(=O)c1cc(-c2ccc(OC)cc2)on1
 : -0.1% | -1%&-16% | -4% | 5%[46.1 µM] | 3% | -4%&-4%[46.1 µM] | 9% | 1%
O=c1cc(COc2cccc(C(F)(F)F)c2)nc2sc3c(n12)CCCC3
 : -0.6% | -13% | -9% | 6%[46.1 µM] | x | 4%[46.1 µM] | x | x
COc1ccccc1CNC(=O)c1cc2c(=O)oc3ccc(C)cc3c2s1
 : 0.5% | 4% | -10% | 19%[46.1 µM] | x | 8%[46.1 µM] | x | x
O=C(NC1CC2CCC1C2)C1COc2ccccc2O1 (stereo not given)
 : -4.9% | 28% | -1% | -7% | 6% | 3% | -16% | -2%
O=C1N(Cc2cccnc2)C[C@@H]2C[C@@H](c3ccc(-c4ccccc4)cc3)N3CCC[C@@]123
 : x | u | x | u | -4% | u | -24% | 1%
O=C(COC(=O)Cn1ccc(=O)[nH]c1=O)Nc1ccc(F)cc1
 : x | 6% | x | u | x | u | 6% | 4%
Cc1ccc2c(c1)N(CC(=O)NCc1ccco1)C(=O)CO2
 : -0.7% | -18% | 4% | 0% | -16% | 1% | 9% | 6%
O=C(COC(=O)C1CCN(c2ccc(C(F)(F)F)cn2)CC1)Nc1cc(F)ccc1F
 : x | 6% | x | 1% | x | 29% | -1% | -4%
COC(=O)c1cc(OC)c(OC)cc1NC(=O)Nc1ccc(OC)cc1OC
 : -2.5% | 5% | u | 2% | -15% | 24% | 10% | 2%
CCCn1c(CN2CCN(C(=O)c3ccco3)CC2)nc2c1c(=O)n(C)c(=O)n2C
 : -1.9% | u | 6% | x | -98% | -1% | -11% | 5%
O=C(O)c1ccccc1N1C(=O)c2cccc3cccc(c23)C1=O
 : x | -12% | x | 1% | 12% | u | 4% | 0%
Cc1ccc(C(=O)C(C)OC(=O)Cn2[nH]c(=O)c3ccccc3c2=O)cc1C (stereo not given)
 : x | -8% | x | x | 4% | x | -2% | -6%
COC(=O)c1ccc(COc2cc([N+](=O)[O-])cc3cccnc23)o1
 : x | 1% | x | x | 4% | x | 6% | 1%
Cc1cccc(NC(=O)C2CCN(S(=O)(=O)c3ccc4[nH]c5c(c4c3)CCCCC5)CC2)c1
 : 0.9% | -16% | 13µM* | -16%[46.1 µM] | x | x | x | x
CN(C)CCCn1c(SCC(=O)Nc2nc(-c3cccc(Br)c3)cs2)nc2ccccc2c1=O
 : x | -13% | x | u | 21% | 11µM* | -3% | -1%
CCOC(=O)CSc1nc2ccc(C)cc2cc1C#N
 : -6.3% | x | -3% | u | -5% | u | -20% | -3%
COc1cccc(OC)c1C(=O)OCC(=O)/C(C#N)=C(\C)N
 : x | -9% | x | 25% | x | 16%[46.1 µM] | 0% | 1%
COc1cc(NC(=S)NCc2ccc(S(N)(=O)=O)cc2)cc(OC)c1
 : x | 20% | x | -11% | x | 11%[46.1 µM] | 3% | 0%
CCCn1c(SCC(=O)Nc2cc(C)on2)nc2c1c(=O)n(C)c(=O)n2C
 : x | 0% | x | -42%[14.3 µM] | 12% | 1% | -2% | x
CC(=O)Nc1nonc1-c1nnc(SCc2ccc(Cl)cc2)n1C
 : -1.6% | -6% | 15% | -6%[46.1 µM] | x | -1%[46.1 µM] | x | x
O=C(NS(=O)(=O)c1ccccc1)c1ccccc1
 : 0.5% | 0% | -3% | 9% | 0% | 9% | -13%[3.69 µM] | 1%
COc1ccccc1-n1c(=S)sc2c(=O)n(Cc3ccco3)c(SC)nc21
 : -6.8% | 1% | -28% | -52%[14.3 µM] | -34% | u | 4% | 2%
CCn1c(C(=O)NCc2ccc(C)cc2)cc2sc(Cl)cc21
 : -5.0% | -7% | 0% | x | x | 0%[46.1 µM] | x | x
Cc1c(C(=O)N2CCCCC2)c(S(=O)(=O)NCc2ccc(Cl)cc2)c(C)n1C
 : x | 66%[activator] | x | -16%[46.1 µM] | -11% | -16%[46.1 µM] | 10% | 15%
O=C1CCC(C(=O)N2CCN(c3cnccn3)CC2)CN1CCc1ccc(Cl)cc1 (stereo not given)
 : x | -10% | x | 10% | -6% | 9% | -16% | 2%
CCc1cccc(C)c1NC(=O)CSc1nc(-c2ccccc2F)nc2nc[nH]c12
 : -4.2% | -4% | u | 4% | 9% | -13% | -2% | -3%
